Screening data from PubChem.
TAR Tat displ – HIV-1 TAR-Tat binding disruption; HIV-1 TAR RNA, Tat peptide displacement FRET; stronger effect = higher value; z-score (test concentration not listed); 0.6% of 100,000 active; AID 1259389;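 also: score is relative to mean and SD of negative controls; some compounds called inactive have numbers as strong as hits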
CDC25B-CDK2 inh – human CDC25B-CDK2/CyclinA binding inhibition; P30305+P24941; HTRF CDC25B-CDK2/CyclinA binding, anti-His/anti-Flag; stronger effect = higher value; z-score (test concentration not listed); 0.72% of 94,000 active; AID 1259370;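 also: score is relative to mean and SD of negative controls; strong numbers were not always called active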
The depositor's hits bear a star; nt = no result given.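 The calls were made as follows: active = z-score from 3 up in half or more of its runs; inactive = the rest.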

| # | compound | CDC25B-CDK2 inh | TAR Tat displ |
| --- | --- | --- | --- |
| 1 | O=S(=O)(c1ccc(Oc2ccccc2)nc1)N1CCCC1c1ccc(F)cc1 (configuration not stated) | -1.4 | nt |
| 2 | COCc1cc(C)nc(NCCO)c1C#N | -1.1 | 0.45 |
| 3 | Cc1ccc(OCc2ccc(-c3nc(C#N)c(N(C)C)o3)o2)cc1 | -1.8 | 1.3 |
| 4 | COc1ccc2c(c1)SC1=NC(c3ccccc3)(C(F)(F)F)NC(=O)N12 (configuration not stated) | 0.56 | nt |
| 5 | Cc1cc2n(n1)C(c1ccc(N(C)C)cc1)Nc1c(C)cccc1-2 (configuration not stated) | -0.93 | 0.77 |
| 6 | CCCC(NS(=O)(=O)c1cc2c(cc1Cl)NC(=O)CO2)c1cccs1 (configuration not stated) | nt | -0.84 |
| 7 | CCc1ccc(-c2cc(C)no2)cc1S(=O)(=O)NCc1cc(C)ccc1C | nt | 1.8 |
| 8 | C=CCc1ccccc1OCc1nc2ccc(Cl)cc2[nH]1 | 2.7 | 1.5 |
| 9 | Cc1nn2c(nc1=O)NN=C(c1ccccc1)C2 | -5.5 | 0.32 |
| 10 | Clc1ccccc1CN1CCN(CC2CC=CCC2)CC1 (configuration not stated) | 0.34 | -1.9 |
| 11 | Cc1ccc(-n2nnc(-c3nc(-c4ccc(Cl)cc4)no3)c2N)cc1C | nt | 0.52 |
| 12 | Cc1ccc(NC(=O)CSc2nnc(C)n3c2cc2occc23)cc1C | nt | -0.51 |
| 13 | FC(F)(F)c1ccc2c(c1)[nH]c(=S)n2CCc1ccccc1 | -1.7 | nt |
| 14 | O=C(Nc1nc(-c2cccs2)ns1)c1ccc(Br)cc1 | -3 | 2.4 |
| 15 | COCCN1C(=O)C(=O)/C(=C(\O)c2ccc(F)cc2)C12C(=O)N(C)c1ccccc12 (configuration not stated) | -0.14 | 2.6 |
| 16 | Nc1nc(Nc2ccccc2)sc1C(=O)c1ccc(F)cc1 | 4.8 | 1.4 |
| 17 | Cc1cc(N2CCN(CCO)CC2)n2nc(-c3ccccc3C)nc2n1 | 0.6 | 1.8 |
| 18 | CN(C(=O)C1CCN(S(=O)(=O)c2cccc3nonc23)CC1)c1ccc(Br)cc1 | 0.87 | nt |
| 19 | COCc1cc(=O)[nH]c2c1c(-c1cccs1)nn2C | -1.2 | nt |
| 20 | CCCOC(=O)c1ccc(N2CC(O)=C(c3nc4ccccc4s3)C2=N)cc1 | -0.68 | 0.58 |
| 21 | Cc1cc2nc(C)n(CCOc3ccccc3C)c2cc1C | -0.54 | -0.55 |
| 22 | Cc1ccc(C2CC(=O)Nc3nc(SCc4ccccc4C)[nH]c(=O)c32)c(C)c1 (configuration not stated) | -2.6 | 0.61 |
| 23 | CCOC(=O)c1nc(NC2CC2)c2ccccc2n1 | nt | 1.8 |
| 24 | C=C(C)CC(Nc1ccccc1C)c1ccco1 (configuration not stated) | -0.4 | 1.4 |
| 25 | COc1cccc(Nc2cc(C)nc3nnnn23)c1 | -2.5 | nt |
| 26 | CC(=O)OCCNc1cc(C)c2noc3c2c1C(=O)c1ccccc1-3 | -1.8 | -3.3 |
| 27 | COc1cc(C2=NOC(C(=O)NCC3CCCO3)C2)cc(OC)c1OC (configuration not stated) | -1.6 | nt |
| 28 | O=S(=O)(c1ccc(F)cc1)N(CCO)CC(O)Cn1c2ccccc2c2ccccc21 (configuration not stated) | -0.41 | 4.2 |
| 29 | COc1cc2c(c3c1C(=O)CC(c1ccccc1)O3)C=CC(C)(C)O2 (configuration not stated) | 1.1 | nt |
| 30 | Cc1ccc(-c2cc(C(=O)N(Cc3cccc4ccccc34)C3CCS(=O)(=O)C3)no2)cc1F (configuration not stated) | 0.2 | 1.4 |
| 31 | Oc1ccc2ncccc2c1C(Nc1ccccn1)c1ccc(Br)cc1 (configuration not stated) | 1.6 | -2.2 |
| 32 | CCC1=Nc2cc(C(=O)N3CCN(C)CC3)ccc2Sc2ccc(C)cc21 | -3.3 | -0.6 |
| 33 | Cc1cc(-c2ccc(S(=O)(=O)N3CCC(C)CC3)s2)n[nH]1 | nt | 0.76 |
| 34 | CN1CCN(C(=O)CN2C(=O)COc3ccc(S(=O)(=O)N4CCCC4)cc32)CC1 | -0.19 | nt |
| 35 | CCOc1ccc(N(C(=O)CC(C)C)S(=O)(=O)c2ccc3c(c2)oc(=O)n3C)cc1 | -0.35 | -0.46 |
| 36 | Cc1cccc(N2CCN(CC(O)c3ccc4cc[nH]c4c3)CC2)c1C (configuration not stated) | -0.78 | -0.09 |
| 37 | O=C(CCc1nc2sc3c(c2c(=O)[nH]1)CCCC3)N1CCN(C2CCCCC2)CC1 | nt | -0.81 |
| 38 | Cc1cc(NC(=O)C2COc3ccccc3O2)no1 (configuration not stated) | 1.2 | 1.6 |
| 39 | O=C1CC2c3ccccc3CCN2C(=O)N1c1ccc(Cl)cc1 (configuration not stated) | nt | 0.8 |
| 40 | O=C(CSC1=NS(=O)(=O)c2ccccc2N1)Nc1ccc(Br)cc1F | nt | 1.8 |
| 41 | Cc1ccc(-c2c(Nc3ccc(C(C)C)cc3)c(=O)c2=O)cc1 | nt | 1.3 |
| 42 | COc1ccc(-c2cc(Nc3ccc(OC)cc3OC)nc(C)n2)cc1 | 1.7 | -0.37 |
| 43 | Cn1cc(NC(=O)N2CC=C(c3ccccc3)CC2)c2ccccc2c1=O | nt | -0.89 |
| 44 | CCc1nc2nc(CSc3nc4ccc(NC(=O)C(CC)CC)cc4s3)cc(=O)n2[nH]1 | nt | -1.3 |
| 45 | CN1C2CCC1CC(OC(=O)c1c[nH]c3ccccc13)C2 (configuration not stated) | -1.5 | nt |
| 46 | CN(C(=O)C1CCCN1S(=O)(=O)c1ccc2c(c1)n(C)c(=O)c(=O)n2C)C1CCCCC1 (configuration not stated) | -0.46 | -1.1 |
| 47 | O=C(NCCC1=CCCCC1)c1noc2c1CSc1ccccc1-2 | 0.02 | 1.1 |
| 48 | Cc1ccc2oc3c(c(=O)c2c1)C(c1cccs1)N(CCCN1CCOCC1)C3=O (configuration not stated) | nt | 0.72 |
| 49 | O=C(O)CCc1nc2ccccc2n1CCC(=O)O | -1.7 | nt |
| 50 | COc1ccc(OC)c(S(=O)(=O)N2CCCC2c2cccs2)c1 (configuration not stated) | 0.53 | 0.56 |
| 51 | O=C(NCc1ccc(-c2cccs2)s1)c1ccc(N2CCOCC2)nc1 | -2 | nt |
| 52 | O=C(Nc1c2c(nn1-c1ccc(F)cc1)CSC2)c1ccc2c(c1)OCO2 | -3.4 | nt |
| 53 | O=C(NC1COc2ccccc2C1)N1CCOCC1 (configuration not stated) | nt | 1.3 |
| 54 | Cc1ccccc1OCCCn1c(C2CCCO2)nc2ccccc21 (configuration not stated) | -0.23 | 0.29 |
| 55 | Cc1ccc2nc(NC3=NCN(CC4CCCO4)CN3)nc(C)c2c1 (configuration not stated) | 2.6 | 0.56 |
| 56 | Cc1cc(C)c2c(n1)nn1c(C)c(CCC(=O)Nc3ccc(Br)c(C)c3)c(C)nc21 | -1.3 | 1.5 |
| 57 | O=C(CC(C(=O)O)c1ccccc1)c1cccs1 (configuration not stated) | -1.3 | nt |
| 58 | Cn1c(=O)c2c(nc(CN3CCOCC3)n2Cc2ccccc2F)n(C)c1=O | 1 | 1.6 |
| 59 | O=C(CSc1nc2ccccc2n1S(=O)(=O)c1ccc(Cl)cc1)NC1CCCCC1 | nt | 1.2 |
| 60 | CCOC(=O)C(C)Oc1ccc2c(=O)c(-c3cc4ccccc4o3)coc2c1C (configuration not stated) | -0.06 | nt |

Next entries follow:
| # | compound | CDC25B-CDK2 inh | TAR Tat displ |
| --- | --- | --- | --- |
| 61 | CCN(CC)c1ccc(C2C(C(=O)OC(C)C)=C(C)Nc3nc4ccccc4n32)cc1 (configuration not stated) | -1.1 | 1.9 |
| 62 | COc1ccc(-c2noc(CSc3nnc(-c4ccncc4)n3CC(C)C)n2)cc1OC | -1.3 | 0.15 |
| 63 | Cc1nc2c3ccccc3n3c(CCCC(=O)NCCc4c[nH]c5ccccc45)nnc3n2n1 | -0.51 | nt |
| 64 | Cn1ccnc1 | -1.2 | nt |
| 65 | O=C(c1cccc(Cl)c1)N1CCn2c1nc1ccccc12 | -0.38 | 3.8 |
| 66 | Cc1nn2c(=O)cc(CSc3ncn[nH]3)nc2s1 | nt | -0.07 |
| 67 | Clc1ccc(-c2csc(-c3ccccn3)n2)cc1 | -2.1 | 2.8 |
| 68 | COc1ccc(-c2n[nH]c3c2C(c2cccc(O)c2)NC3=O)cc1 (configuration not stated) | -0.64 | -1.5 |
| 69 | COc1ccc(C(=O)CC2(O)C(=O)N(C)c3ccccc32)cc1OC (configuration not stated) | -0.35 | 0.14 |
| 70 | Cc1cc(C)n2ncc(C(=O)N3CCc4ccccc43)c2n1 | nt | -0.61 |
| 71 | CCOC(=O)N1CCC(Nc2c(N3CCN(c4ccccn4)CC3)c(=O)c2=O)CC1 | -0.73 | -0.19 |
| 72 | Cc1ccc2nc(C3C(=O)c4cccc5cccc(c45)C3=O)ccc2c1 | -1.4 | -0.85 |
| 73 | O=C(NCCN1CCCC1)c1ccc(Cn2c(SCc3ccc(F)cc3)nc3cccnc32)cc1 | nt | -0.84 |
| 74 | COc1ccc(Cl)cc1NC(=O)c1cnc2sccn2c1=O | -3.3 | nt |
| 75 | COc1ccc(-n2c(Cc3cccn3C)nnc2SCC(=O)Nc2nnc(C)s2)cc1 | -1.8 | nt |
| 76 | COc1ccc(-c2nc(SCC(=O)N(C)C3CCCCC3)n3[nH]c(=O)cc3n2)cc1 | nt | 2 |
| 77 | Cc1ccc2ncc(C(=O)Nc3ccccc3)c(=O)n2c1 | -2 | 0.15 |
| 78 | CNc1nc(N)c([N+](=O)[O-])c(Nc2ccc(C)cc2)n1 | nt | 1.4 |
| 79 | Cc1nnsc1C(=O)NC1Cc2ccccc2C1 | -1.3 | nt |
| 80 | CC(=O)N1c2ccc(S(=O)(=O)N3CCCC3)cc2CC1C(=O)NCCCOC(C)C (configuration not stated) | nt | 0.96 |
| 81 | O=[N+]([O-])c1ccc(-n2ncc(-c3nnc(-c4ccco4)o3)c2C(F)(F)F)cc1 | -0.96 | nt |
| 82 | Cc1cc(C)c(Cn2cccc2CNC(=O)NCc2ccco2)c(C)c1 | nt | 0.65 |
| 83 | COC(=O)c1cc(S(=O)(=O)Nc2cc(Cl)c(OC)cc2OC)c[nH]1 | nt | 0.66 |
| 84 | CCCN(Cc1cc2cccc(C)c2[nH]c1=O)S(=O)(=O)c1ccccc1 | -3.1 | 0.64 |
| 85 | Cc1ccc(-c2[nH]nc3c2C(c2cccs2)C2=C(CC(C)(C)CC2=O)N3)cc1 (configuration not stated) | -1.6 | -0.26 |
| 86 | Cc1nc2nc(C(F)(F)F)[nH]n2c(=O)c1CCC(C)C | -1.1 | 1.1 |
| 87 | Oc1ccc(Cl)cc1C1=NN2C(C1)c1ccccc1OC2c1ccncc1 (configuration not stated) | -1 | 0.61 |
| 88 | CCCc1cc(=O)[nH]c(SCc2ccc(Br)cc2)n1 | -1.9 | 2 |
| 89 | CCOC(=O)c1c(NC(=O)c2cc(-c3ccc4c(c3)OCCO4)on2)sc2c1CCC2 | -0.96 | 1.1 |
| 90 | Cn1cccc1CNC(=O)Nc1ccccc1 | nt | 1.2 |
| 91 | O=c1c(Nc2cccc3c2CCCC3)c(-c2ccc(Cl)cc2)c1=O | nt | 0.04 |
| 92 | CCOc1cc(-c2cc(C(=O)O)c3c(-c4ccc(Cl)cc4)[nH]nc3n2)ccc1O | 1.8 | 0.37 |
| 93 | COc1cccc2c1c(NS(=O)(=O)c1cn(C)cn1)nn2C | -2.2 | nt |
| 94 | O=C1c2ccccc2C(Nc2cccnc2)N1c1cccnc1 (configuration not stated) | -0.21 | -0.44 |
| 95 | OCCOCCNc1ncnc2c1cnn2-c1ccc(Cl)cc1 | nt | -0.15 |
| 96 | CCOC(=O)c1c(-c2ccccc2)oc2ccc(OC(=O)c3ccco3)cc12 | -1.7 | -0.88 |
| 97 | O=C(CCc1nc2sc3c(c2c(=O)[nH]1)CCCCC3)NC1CCCCC1 | nt | -0.45 |
| 98 | O=C(Nc1nc2ccc(Br)cc2s1)c1c(O)c2ccccc2[nH]c1=O | -0.56 | nt |
| 99 | N=C1C(c2nc3ccccc3s2)=C(O)CN1c1ccc(N2CCCCC2)cc1 | -1.2 | 1.7 |
| 100 | CC1=C(C)[N+](=O)C(C)C(C)(C)N1[O-] (configuration not stated) | -1.9 | nt |
| 101 | CCSCCOC(=O)C1=C(C)NC2=C(C(=O)CC(c3ccc(OC)cc3)C2)C1c1cccc(O)c1 (configuration not stated) | -0.65 | -0.37 |
| 102 | OCC1OC(Nc2ccc(Cl)cc2)C(O)C(O)C1O (configuration not stated) | 0.28 | 0.64 |
| 103 | Cc1cc(Br)ccc1NC(=O)c1sc2nc3n(c(=O)c2c1C)CCCCC3 | nt | 1.9 |
| 104 | CCOC(=O)C1=C(Nc2ccccc2)OCC1=O | 0.04 | nt |
| 105 | CCCSc1nc(=O)c2c(n1C)NC(=O)CC2c1ccc(F)cc1F (configuration not stated) | -0.14 | 0.01 |
| 106 | COC(=O)C1CCN(C2=C(C(=O)N3CCOCC3)S(=O)(=O)c3ccccc32)CC1 | nt | 1.1 |
| 107 | O=c1c2nnn(Cc3ccccc3F)c2ncn1Cc1ccc(Br)cc1 | -0.4 | 0.29 |
| 108 | Cc1cc(C)c2c(CC(=O)Oc3ccc(Cl)cc3)coc2c1 | -1.4 | 2.5 |
| 109 | CC(C)(C)C1CCc2onc(C(=O)Nc3sc4c(c3C(N)=O)CCCC4)c2C1 (configuration not stated) | 0.07 | nt |
| 110 | O=C1Cc2cc(S(=O)(=O)NCc3cccs3)cc3c2N1CCC3 | nt | 1.6 |
| 111 | Cc1oc(-c2cccs2)nc1CSc1nc2ccncc2[nH]1 | -0.22 | -1.4 |
